TRPML1 ag: agonists of human TRPML1 channel; activation, % (no concentration beside the values); Q9GZU1; hit rate 0.12% among 410,000; TRPML1-expressing cells, Ca2+ dye fluorescence, FDSS; host cell line not named in the record; reference of the full effect not given here; AID 624414; in the data active = activation above about 50%; inconclusive = about 30% to 50%; inactive = below about 30%; note: 0% is about no effect; the text of the record puts the active cut at 80%
Target sequence (Q9GZU1 whole entry, looked up): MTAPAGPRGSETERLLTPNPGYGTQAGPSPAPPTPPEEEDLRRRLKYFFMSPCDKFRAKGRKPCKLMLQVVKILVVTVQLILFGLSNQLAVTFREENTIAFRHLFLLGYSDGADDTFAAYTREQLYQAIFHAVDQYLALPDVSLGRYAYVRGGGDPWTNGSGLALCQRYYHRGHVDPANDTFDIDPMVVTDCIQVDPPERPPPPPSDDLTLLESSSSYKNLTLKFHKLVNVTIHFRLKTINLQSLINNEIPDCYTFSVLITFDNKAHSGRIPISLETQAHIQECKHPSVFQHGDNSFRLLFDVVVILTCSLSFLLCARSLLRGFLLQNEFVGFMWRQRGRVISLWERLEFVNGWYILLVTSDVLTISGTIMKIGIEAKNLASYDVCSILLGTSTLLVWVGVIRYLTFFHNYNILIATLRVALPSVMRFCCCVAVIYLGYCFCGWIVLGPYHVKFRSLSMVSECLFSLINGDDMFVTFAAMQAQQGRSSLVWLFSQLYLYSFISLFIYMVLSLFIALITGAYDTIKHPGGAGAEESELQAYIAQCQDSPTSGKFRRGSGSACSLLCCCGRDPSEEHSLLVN
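TRPML1-DL cells, Tet-induced overnight (~16 h, 37 degrees C), loaded 45-90 min at room temperature with Ca8 no-wash calcium dye plus quencher. FDSS fluorescence: 10 s baseline, compound pin-transfer, 110 s agonist read, then EC80 54-4 (4uM final) and 110 s antagonist read.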
D2 PAM: positive allosteric modulators of human D2 dopamine receptor; P14416; hit rate 0.23% among 360,000; potentiation, % (test concentration not listed); AID 624464; DiscoveRx D2 beta-arrestin cells, luminescence, 90 min; 100% = 57 uM dopamine signal; active = potentiation of 50% or more; inconclusive = 30% to 50%; inactive = 30% or less;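 note: compound concentration not given in the record; tested on top of an EC20 dose of dopamine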
Target sequence (P14416 whole entry, looked up): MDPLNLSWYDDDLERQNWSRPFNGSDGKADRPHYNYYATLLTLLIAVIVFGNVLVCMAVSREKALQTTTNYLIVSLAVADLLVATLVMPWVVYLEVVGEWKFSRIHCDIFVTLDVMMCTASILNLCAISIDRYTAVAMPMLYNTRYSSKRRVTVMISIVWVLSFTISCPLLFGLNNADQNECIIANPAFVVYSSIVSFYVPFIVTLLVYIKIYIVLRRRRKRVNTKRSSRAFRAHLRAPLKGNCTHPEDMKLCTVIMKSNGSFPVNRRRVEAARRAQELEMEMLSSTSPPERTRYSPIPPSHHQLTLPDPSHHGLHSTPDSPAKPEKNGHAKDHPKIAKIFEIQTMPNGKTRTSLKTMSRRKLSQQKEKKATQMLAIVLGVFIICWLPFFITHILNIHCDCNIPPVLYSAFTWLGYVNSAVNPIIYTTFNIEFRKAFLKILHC
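D2 cells co-treated with compound plus 50 nM dopamine (EC20) for 90 min at 37 deg C to detect potentiation. Beta-arrestin recruitment was read as enzyme-fragment luminescence after 1 h at ambient temperature. Full response was set by 57 uM dopamine.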
PINK1 expr mod: modulators of PINK1 expression; PINK1 immunofluorescence, high-content cytometry, 24 h; Potency, µM (highest dose often 76.6 µM), inactives show top-dose activation (PINK1 increase), usual class: activators; hit rate 0.2% among 410,000; active = well fitted activation curve with a large enough effect; inconclusive = small, poorly fitted or top-dose-only effect; inactive = flat fitted curve, though single readings scatter; cell line not stated here;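 note: potency is the fitted concentration of half-maximal effect; % of control where 0% means no effect; nearly all actives have a fitted effect of over 65% in size; a mitochondrial uncoupler was the plate control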
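Cells are seeded, rested 12 hours, then given compound at five concentrations or DMSO for 24 hours. After fixation, blocking and antibody staining, PINK1 amount and mitochondrial localization are scored; CCCP serves as control.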
Six1-Eya2 inh: inhibitors of human Six1/Eya2 interaction | Q15475+O00167 | AlphaScreen GST-Six1/His-Eya2 binding, biochemical; hits give low values; control for the full effect not named in the record | activity change, % (concentration not given with the values) | hit rate 0.56% among 360,000; in the data active = activity change below about -65%; inconclusive = about -30% to -65%; inactive = above about -30%; note: % is set by controls: 0 for no effect and ±100 for the full control effect
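GST-Six1 + His-Eya2 (5X stock: 250/500 nM); Tris pH 8.0, 300 mM NaCl, 0.05% BSA, 0.02% Tween 20; GSH donor/Ni acceptor beads; 1 h 37 °C dark; AlphaScreen readout.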
CtBP-E1A blk: inhibitors of CtBP/E1A interaction | activity change, % (no concentration beside the values) | AlphaScreen GST-E1A/His-CtBP binding, 1536-well; hits give low values; control for the full effect not named in the record | hit rate 0.49% among 340,000; in the data active means activity change below about -65%; inconclusive means about -30% to -65%; inactive means above about -30%; note: % is set by controls: 0 for no effect and ±100 for the full control effect; compound concentration not given in the record
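In 5 uL wells, 23 nL compound meets equimolar GST-E1A and His-CtBP (5X stock 125 nM each) for 2 h, 37 °C. Beads (5X, 50 ug/mL) then 1 h, 37 °C, dark.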
D2 agonist: activates the human D2 dopamine receptor; P14416; DiscoveRx PathHunter D2 beta-arrestin, luminescence, 90 min; 100% = 57 uM dopamine signal; activation, % (test concentration not listed); hit rate 0.084% among 360,000; AID 624465; in the data active = activation above about 40%; inconclusive = about 15% to 40%; inactive = below about 15%; note: compound concentration not given in the record; the text of the record calls up to 30% inactive
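Agonist mode: compounds alone added to overnight-plated D2 PathHunter cells for 90 min at 37 C, with 57 uM final dopamine (EC100) defining full response. Beta-arrestin recruitment detected by chemiluminescent reagent, read after 1 h at ambient temperature.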
Starred values were filed as active, the others as inactive; ? = inconclusive; . = no result given; & = joins results of further samples; [ ] = remark or other dose.

Preview, 4 compounds:
SMILES | TRPML1 ag | D2 PAM | PINK1 expr mod | Six1-Eya2 inh | CtBP-E1A blk | D2 agonist
CSc1ccccc1NC(=O)CCn1c(=O)sc2ccccc21 | 0.9 | -11 | -4.1% | 3 | 2 | -0.4
Cc1cc(OCC(=O)N(Cc2ccco2)C2CCS(=O)(=O)C2)cc(C)c1Cl (stereo unspecified) | 0.0 | -7 | 3.7% | -16 | -13 | -0.8
CCOC(=O)Cn1ncc2c3ccccc3n(CC(=O)OCC)c2c1=O | . | -7 | 0.3% | 0 | -22 | -4.9
O=C(O)CNS(=O)(=O)c1cccc(Cl)c1 | . | -4 | 0.9% | 6 | 5 | -5.1

The listing, repeating the preview:
SMILES | TRPML1 ag | D2 PAM | PINK1 expr mod | Six1-Eya2 inh | CtBP-E1A blk | D2 agonist
CSc1ccccc1NC(=O)CCn1c(=O)sc2ccccc21 | 0.9 | -11 | -4.1% | 3 | 2 | -0.4
Cc1cc(OCC(=O)N(Cc2ccco2)C2CCS(=O)(=O)C2)cc(C)c1Cl (stereo unspecified) | 0.0 | -7 | 3.7% | -16 | -13 | -0.8
CCOC(=O)Cn1ncc2c3ccccc3n(CC(=O)OCC)c2c1=O | . | -7 | 0.3% | 0 | -22 | -4.9
O=C(O)CNS(=O)(=O)c1cccc(Cl)c1 | . | -4 | 0.9% | 6 | 5 | -5.1
CC(C)CC(CO)N1CCN(C(=O)c2ccc(Cl)cc2)CCC1=O (stereo unspecified) | 2.9 | 0 | -0.8% | ? | 1 | 1.4
CCCn1c(SCc2ccc(C(=O)OC)o2)nc2ccccc2c1=O | 0.6 | -2 | -1.8% | -11 | 8 | 1.5
O=C(CSc1n[nH]c(-c2ccccc2F)n1)NCC(=O)Nc1ccc(F)c(F)c1F | -0.1 | -3 | 1.1% | -2 | 0 | 0.6
CCCc1ncc(C(O)(c2ccccc2)c2ccccc2)n1C | -0.7 | -4 | 3.4% | 1 | 0 | 2.1
CNc1cc(CSC)nc(SCc2ccc(Cl)cc2Cl)n1 | 0.7 | 2 | 6.6%[38.3 µM] | -6 | 1 | 1.2
O=C(Cc1cccc2ccccc12)N/N=C1\CCCc2ccccc21 | 4.6 | -14 | 1.0% | -1 | 2 | 1.4
Cc1ccc(NC(=O)CC2OC(=O)c3ccccc32)cc1S(=O)(=O)N1CCCCCC1 (stereo unspecified) | -0.8 | 3 | 2.0% | -3 | 4 | 15
Cc1nn(-c2ccccc2)nc1C(=O)Nc1ccc2c(c1)OCCO2 | 2.9 | -4 | 0.6% | 4 | 4 | -5.2
O=C(Nc1ccncc1)c1cccc(S(=O)(=O)N2CCCC2)c1 | 1.1 | 20 | 0.1% | -8 | 4 | 5.2
CCC1Oc2ccc(C)cc2N(CC(=O)NCc2cccc(OC)c2)C1=O (stereo unspecified) | 2.8 | 7 | -1.9% | 8 | -3 | 0.3
O=C(N/N=C/c1cccs1)c1cc(-c2ccncc2)nc2ccccc12 | 0.9 | 6 | 9.2% | -25 | 2 | 3.3
CCc1ccc(-c2cc(C(=O)NN3CCOCC3)c3ccccc3n2)cc1 | -0.3 | -10 | 2.6% | 5 | 5 | -1.5
Cc1nnc(SCC(=O)Nc2nc(-c3ccccc3)cs2)n1N | -0.4 | 0 | 1.6%[38.3 µM] | -2 | -1 | -1.3
CCC(=O)Nc1ccc(-c2ccc(N3CCCCC3)nn2)cc1 | -0.5 | -8 | -1.7% | -1 | -2 | -2.7
c1ccc(-c2cn(CC3CCCCC3)nn2)cc1 | -0.9&0.9 | -44 | 2.8% | 6 | -3 | 2.7
Cc1ccc(C)c(CN2CCC(CNC(=O)CCc3nnc4ccc(N5CCC(C)CC5)nn34)CC2)c1 | 0.9 | -19 | 3.6% | -6 | . | -5.5
O=[N+]([O-])c1ccccc1/C=N\N1CCN(Cc2ccccc2Cl)CC1 | 0.1 | -22 | -0.1% | ? | ? | -5.7
Clc1ccc(OCc2nnc(SCc3nc4ccccc4[nH]3)n2Cc2ccco2)cc1 | -1.2 | -10 | -0.2% | -4 | -15 | -1.1
Cc1ccc(C(=O)NC2CCN(C(=O)Nc3ccccc3Cl)CC2)cc1 | -1.6 | -7 | 0.2% | 2 | -11 | -9.0
COc1ccc(CN(C)S(=O)(=O)c2nnc(NC(=O)c3cccc(F)c3)s2)cc1 | 0.0 | 1 | 27% | 1 | 3 | -0.1
CCC(C)N1C(=O)S/C(=C/c2ccc3c(c2)n(C)c(=O)n3C)C1=O (stereo unspecified) | 0.1 | -3 | 7.2% | 2 | -10 | 3.6

(further entries)
SMILES | TRPML1 ag | D2 PAM | PINK1 expr mod | Six1-Eya2 inh | CtBP-E1A blk | D2 agonist
COCCN(C(=O)C1CCCO1)c1c(N)n(CC(C)C)c(=O)[nH]c1=O (stereo unspecified) | 3.7 | 0 | 2.3% | 1 | 2 | 4.4
Cc1ccccc1NC(=O)c1nn(C)c2c1CS(=O)(=O)c1ccccc1-2 | -0.3 | -13 | 3.4% | 1 | . | -2.8
COc1ccccc1NC(=O)C(=O)NCc1ccncc1 | 2.4 | -6 | -1.8% | -3 | -19 | -1.9
CCn1c(/C=C/c2ccc(O)cc2)nc2ccccc2c1=O | 1.7 | 4 | -1.4% | -5 | -16 | 1.3
CC(=O)N(CCC(c1ccccc1)c1ccco1)Cc1cccs1 (stereo unspecified) | 0.8 | -11 | 2.1% | -3 | -6 | -3.2
O=C(CSC(=S)N1CCCC1)Nc1ccc(Br)cc1Cl | 3.2 | -30 | 2.8% | 7 | 17 | -2.4
COc1ccc(-c2nc(N)ncc2-c2ccccc2)c(O)c1 | . | 6 | 0.2% | -25 | -11 | -3.8
CCC(C)N(C(=O)COc1ccc(Br)cc1C=O)C1CCS(=O)(=O)C1 (stereo unspecified) | -0.3 | 16 | 3.4% | 1 | 4 | -6.5
COc1ccc(NC(=O)Nc2cccc3[nH]c([C@@H]4O[C@H](CO)[C@@H](O)[C@H](O)[C@H]4O)nc23)cc1OC1CCCC1 | -0.9 | -1 | 2.5% | -14 | -5 | 9.1
COc1ccc(-c2nc(NC(=O)CSc3nnc(C)s3)ns2)cc1 | -0.4 | -5 | -0.4%[38.3 µM] | -5 | -9 | -0.8
CCOC(=O)N1CCN(C(=O)COC(=O)c2ccc(S(=O)(=O)N(CC)CC)cc2)CC1 | -0.1 | 7 | 1.6% | 8 | -1 | 0.7
Cc1ccc(C(=O)COC(=O)[C@@H](NC(=O)c2ccco2)C(C)C)s1 | 0.3 | -26 | -0.6% | 22 | -15 | 0.3
O=C(CN1C(=O)c2ccccc2S1(=O)=O)Nc1ccc([N+](=O)[O-])cc1 | 1.3 | -16 | 0.1% | 0 | -8 | -1.4
COc1ccccc1CNC(=O)CN(C)CC(=O)Nc1cccc(F)c1 | -0.3 | -29 | -3.0% | -3 | 6 | -5.4
C=CCn1c(SCc2ccc(C(=O)Nc3nccs3)cc2)nnc1-c1ccc(C)c(Cl)c1 | 1.3 | 15 | -0.2% | ? | ? | 6.2
CC1Cc2ccccc2N1CC(=O)c1c(N)n(Cc2ccccc2)c(=O)n(C)c1=O (stereo unspecified) | 2.9 | -6 | 0.1% | -8 | -12 | 1.6
CCOCCCNC(=O)C(c1ccc(C)cc1)N(Cc1ccc2c(c1)OCO2)C(=O)CNC(C)=O (stereo unspecified) | -0.4 | 3 | -0.6% | 7 | -3 | 0.9
CC(OC(=O)CN1C(=O)C2CCCCC2C1=O)C(=O)Nc1ncc(Cl)cc1Cl (stereo unspecified) | -0.4 | 5 | -1.2%[38.3 µM] | 2 | -1 | -1.0
COc1ccccc1NC(=O)c1ccc(Br)c(S(=O)(=O)N2CCCC2)c1 | 2.3 | 6 | 3.9% | -6 | -9 | -0.4
O=C1N=C(N2C=CC(=C3C=CNC=C3)C=C2)/C(=C/N=NC(=O)c2ccccc2O)S1 | 0.9 | -2 | -0.1% | -19 | -26 | 0.1
Cc1ccc(Cc2c(-c3cccc(Cl)c3)nc3ccc(Cl)cn23)cc1 | -0.1 | -6 | 25% | 9 | 8 | -7.1
Cn1nccc1-c1coc2c(C(=O)NCC3CCOCC3)cccc12 | -0.3 | -10 | 0.8% | -18 | -21 | -2.8
Cn1c(=O)c2c(SCC(=O)N3CCCc4ccccc43)nc(C3CC3)nc2n(C)c1=O | -0.5 | -4 | 0.9% | 2 | 2 | -5.5
Cc1ccc(CSc2nccc(-c3c(C)nc4ccccn34)n2)cc1 | 1.3 | -20 | 2.8% | 7 | . | -3.8
COc1ccc(CCNC(=O)CN(CCc2ccccc2)S(C)(=O)=O)cc1 | -0.4 | -13 | 0.8% | 5 | 1 | -2.4

Other records.
SMILES | TRPML1 ag | D2 PAM | PINK1 expr mod | Six1-Eya2 inh | CtBP-E1A blk | D2 agonist
CCOC(=O)N1CCN(Cc2ccc(F)cc2F)CC1 | 3.7 | 2 | 4.3%[38.3 µM] | 3 | 11 | 6.3
CC(CCc1ccccc1)NC(=O)[C@@H]1Cc2ccccc2CN1 (stereo partly specified) | 0.8 | -12 | 0.5% | 2 | . | -5.6
C=CCNCCCOc1ccc(C)cc1Br | 0.0 | -14 | -0.9% | 3 | -4 | -13
COc1ccc(/C=C/C(=O)Nc2cccc(F)c2)cc1S(=O)(=O)N1CCOCC1 | -0.1 | -1 | 6.8% | -14 | -30 | 0.3
COc1nc2c(s1)C(=O)NCCC2 | -0.3 | -3 | 1.0% | 5 | 9 | -0.3
CCOc1ccc2nc(NC(=O)C3CCN(C(=O)c4ccco4)CC3)sc2c1 | 1.2 | -16 | -0.7% | -1 | -18 | -6.8
CCc1cc2c(SCC(=O)c3ccc(Cl)s3)ncnc2s1 | 1.0 | -3 | 6.2% | 0 | 2 | -0.2
Cc1nc2ccccc2n1CC(=O)OCC(=O)NCc1ccccc1 | -1.3 | -15 | -0.4% | 1 | 0 | -4.8
COc1ccc2[nH]c(=O)c(CN(CCO)C(=O)c3ccccc3F)cc2c1 | -0.3 | 12 | -1.0% | 8 | 4 | 0.0
CC(C)CN1CCC(=O)N([C@H](CSc2ccc(Br)cc2)Cc2ccccc2)CC1 | 2.3 | -9 | ? | -9 | -12 | 2.3
COc1ccc(COCC(O)CN2CCOCC2)cc1OC (stereo unspecified) | 0.0 | -14 | -1.3% | -6 | -2 | -5.9
Cc1cc(C)c2c(N)c(C(=O)N3CCc4ccccc4C3)sc2n1 | 1.3 | -2 | 4.7% | 7 | . | -3.7
CCOC(=O)C1(C)NC(c2ccc(OC)c(OC)c2)C2C(=O)N(CC)C(=O)C21 (stereo unspecified) | -0.5 | -5 | -0.8% | 3 | 1 | -0.6
Cc1ccc(-n2nc(-c3ccco3)cc2C(=O)NCc2cccnc2)cc1 | 2.7 | -28 | -0.9% | 3 | 13 | -3.9
CN(C)CCNC(=O)c1ccc(CS(=O)(=O)c2ccc(Br)cc2)o1 | 0.6 | -8 | 0.2% | 4 | -1 | -2.4
CC1C(=O)N(Cc2cn(CCC3OCCCO3)nn2)CCS(=O)(=O)N1Cc1ccc(-c2cccc(N(C)C)c2)cc1 (stereo unspecified) | 0.4 | -4 | 2.6% | -21 | 26 | -2.5
COc1ccc(CCNC(=O)C2Cc3ccccc3C(=O)O2)cc1 (stereo unspecified) | 0.1 | -4 | -0.9% | 9 | 5 | -0.8

Source: PubChem (National Center for Advancing Translational Sciences (NCATS))
